RanGTP-Impb inh – inhibitors of RanGTP-importin-beta interaction, primary screen, biochemical, FRET, CFP-Ran, YFP-importin-beta, homogeneous; Ran GTPase (GTP-bound) - importin-beta complex; 300,000 compounds, 1.1% hits; inhibition, % (test concentration not listed); cell-free CFP-Ran/YFP-importin-beta FRET ratio; AID 2216, 2009;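 active means most replicates above 15%; inconclusive means exactly half above 15%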;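 further: 0% = DMSO wells and 100% = Ran loaded with GDP instead of GTP; wells of about 40 µL received 100 nL stock; the first replicate is given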
LANA-H2B inh – blockers of LANA interaction with H2A/H2B – biochemical, FP readout, HTS, primary screen | cell-free LANA-H2A/H2B peptide, fluorescence polarization | 320,000 compounds, 0.6% hits | inhibition, % (no concentration beside the values) | Protein LANA1 (Human herpesvirus 8 type P (isolate GK18)), Q9QR71 | AID 2629, 2010; in the data active means inhibition mostly above about 10%, no sharp cut-off; inactive means mostly below about 6.7%;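 further: stock transfer was 7.5 nL into about 10 µL; 0% = median of vehicle wells and 100% = median of positive control wells; one replicate is shown; the record names a cut of 25% in any replicate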
Target sequence (Q9QR71 whole entry, looked up): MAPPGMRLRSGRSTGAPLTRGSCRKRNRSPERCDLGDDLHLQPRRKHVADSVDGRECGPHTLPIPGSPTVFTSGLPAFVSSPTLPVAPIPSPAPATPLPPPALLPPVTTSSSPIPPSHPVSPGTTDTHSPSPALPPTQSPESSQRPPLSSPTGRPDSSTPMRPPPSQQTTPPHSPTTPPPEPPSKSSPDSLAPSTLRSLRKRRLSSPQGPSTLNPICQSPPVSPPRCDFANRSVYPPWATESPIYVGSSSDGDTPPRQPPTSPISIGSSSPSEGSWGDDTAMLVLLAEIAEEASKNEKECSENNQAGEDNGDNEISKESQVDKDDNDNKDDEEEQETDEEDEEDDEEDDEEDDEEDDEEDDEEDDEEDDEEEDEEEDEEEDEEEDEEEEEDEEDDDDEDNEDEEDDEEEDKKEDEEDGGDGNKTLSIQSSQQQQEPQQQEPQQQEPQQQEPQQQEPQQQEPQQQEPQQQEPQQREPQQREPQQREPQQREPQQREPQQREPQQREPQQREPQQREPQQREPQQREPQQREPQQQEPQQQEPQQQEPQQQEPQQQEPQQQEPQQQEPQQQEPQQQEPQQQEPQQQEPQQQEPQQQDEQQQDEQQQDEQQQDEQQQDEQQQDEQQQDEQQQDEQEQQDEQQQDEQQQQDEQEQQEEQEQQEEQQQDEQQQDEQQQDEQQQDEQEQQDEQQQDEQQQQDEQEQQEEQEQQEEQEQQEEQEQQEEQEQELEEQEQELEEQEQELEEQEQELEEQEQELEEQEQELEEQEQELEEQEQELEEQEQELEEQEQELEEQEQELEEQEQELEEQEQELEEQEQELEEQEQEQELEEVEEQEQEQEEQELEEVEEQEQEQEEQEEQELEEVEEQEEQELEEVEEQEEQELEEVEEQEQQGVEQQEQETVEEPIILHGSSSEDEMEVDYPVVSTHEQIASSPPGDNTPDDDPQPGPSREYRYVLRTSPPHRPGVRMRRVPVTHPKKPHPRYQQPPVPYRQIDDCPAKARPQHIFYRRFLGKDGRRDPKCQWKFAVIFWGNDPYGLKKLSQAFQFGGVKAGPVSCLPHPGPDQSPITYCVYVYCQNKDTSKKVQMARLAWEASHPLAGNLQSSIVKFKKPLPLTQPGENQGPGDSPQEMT
Bfl-1 A1 inh – caspase 3/7 activation in MEF A1-2A-BIM cells, primary screen, A1 inhibitor project, cell-based, luminescence, HTS; AID 2462, 2010; 330,000 compounds, 0.066% hits; caspase activation, % (no concentration beside the values); Caspase-Glo 3/7 luminescence, 3 h; percent of clofoctol response, vehicle zero;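 active means over half of replicate activation scores above 10%, or exactly half above 10 with the replicate mean above 10; inconclusive means replicate mean below 10 yet half the replicates above 10; inactive means over half of replicates below 10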;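 further: wells of about 30 µL received 50 nL stock; many hits fall short of the cut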
Calb FLC – C. albicans growth inhibition with fluconazole, primary screen, CaCi-2 strain, Alamar Blue fluorescence; C. albicans CaCi-2 (fluconazole-resistant clinical isolate) + fluconazole, 48 h; growth inhibition, % (concentration not given with the values); 300,000 compounds, 0.57% hits;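 active means most replicates above 75%; inconclusive means exactly half above 75%; inactive means most below 75%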;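 further: all wells also contain fluconazole at 8 µg/ml as a sub-toxic cotreatment; 0% = median of DMSO wells and 100% = median of geldanamycin control wells; wells of about 8 µL received 7.5 nL stock; the first replicate is given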
Beta apoptosis – inhibitors of cytokine-induced beta cell apoptosis, primary screen, luminescence. protection from apoptosis, % (no concentration beside the values). INS-1E cytokine-induced death, ATP luminescence, 48 h; percent of positive-control rescue, neutral wells zero. AID 435005, 2010. 300,000 compounds, 0.8% hits;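 active means all replicates at 75% or more, or half of them and the mean; inconclusive means half reach 75% but not the mean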;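 further: 0% = cytokine-treated negative control wells and 100% = positive control rescue; higher means more ATP so stronger rescue from cytokine killing; wells of about 40 µL received 100 nL stock; the first replicate is given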
AF4-AF9 inh – inhibitors of AF4 peptide binding to AF9, primary screen, biochemical, AlphaScreen, biotin-AF4 peptide, FLAG-AF9, single point. Protein AF-9 (Homo sapiens), P42568. inhibition, % at 10 µM. 350,000 compounds, 0.47% hits. AID 651704, 2012;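 active means every replicate reaching a set inhibition limit, whatever the replicate mean, cut at about 25% in these data; inconclusive means mean inhibition reaches that limit but some replicates miss it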;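 further: 0% = plate neutral control median and 100% = total signal loss; the record names both 10 and 1 µM as test concentration; the first replicate is given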
Vif TR-FRET – inhibitors of Vif binding to APOBEC3G peptide, primary screen, biochemical, TR-FRET, GST-Vif 1-94, biotin-A3G peptide, dose response retest (AID 1117319); 260,000 compounds, 0.57% hits; Virion infectivity factor (Human immunodeficiency virus type 1 group M subtype B (isolate …; inhibition, %; hits with a dose series show IC50 in µM; TR-FRET GST-Vif / biotin-A3G peptide binding; higher % means a stronger effect; test concentration not given here; strong numbers were not always called active;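 active means above the screen mean plus three standard deviations and confirmed in dose response; inconclusive means results disagree or hit not tested in dose response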;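 further: Vif residues 1-94 fused to GST binding biotinylated APOBEC3G peptide 110-148; 0% = full assay without inhibitor and 100% = GST in place of GST-Vif; retest series ran down from 100 µM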
T cruzi repl – inhibitors of intracellular T. cruzi growth, primary screen, luminescence, NIH3T3 host cells; T. cruzi beta-gal in NIH3T3, 90 h; inhibition, % (no concentration beside the values); 300,000 compounds, 1.4% hits; AID 1885, 2009;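 active means mean inhibition across valid replicates above about 55%, limit read from the data; inconclusive means mean below that limit but half or more replicates reach it; inactive means mean below it, under half of replicates reach it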;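 further: signal also drops with host cell toxicity which is not excluded here; 0% = plate median of DMSO wells and 100% = zero luminescence signal; higher percent means less beta-gal luminescence so fewer parasites; stock transfer was 50 nL into about 50 µL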
* = called active by the depositor; ? = inconclusive; . = not tested or not shown.

Molecule,RanGTP-Impb inh,LANA-H2B inh,Bfl-1 A1 inh,Calb FLC,Beta apoptosis,AF4-AF9 inh,Vif TR-FRET,T cruzi repl
CCN(CC)c1ccc(NC(=O)c2cnc3ccccn3c2=O)c(C)c1,-0.4,2.9,-0.8,-3,11,.,4%,?
OC(COc1ccc(Cl)c2ccccc12)CN1CCN(c2ccccn2)CC1 (stereo not drawn),-1.4,1.6,-1.5,22,2,.,-5%,1
Cc1cc(C)n(CCN(C)c2nc3nonc3nc2NC2CC2)n1,1.9,3.1,0.4,-2,0,0.2,9%,-22
Cc1ccc(NC(=O)Nc2ccccc2C(N)=O)cc1,5.5,0.4,-11,-1,-1,0.3,-17%,-7
O=C(c1cccs1)N1CCC2(O)CCCCC2C1c1ccc(F)cc1 (stereo not drawn),-0.1,1.6,-0.1,-22,-5,.,.,-27
COCCN(CCOC)S(=O)(=O)c1ccc(C(=O)Nc2nc(-c3ccncc3)cs2)cc1,.,2.9,0.4,.,1,.,6%,.
CC1CCCN(C(=O)COC(=O)Cc2c[nH]c3ccccc23)C1 (stereo not drawn),.,-5.5,-0.3,.,-7,-1.5,-2%,.
O=S(=O)(NC1=NCCC1)c1cccc(NC(=S)Nc2ccc(OC(F)F)cc2)c1,.,1.4,2.7,.,-11,1.0,8%,.
N#Cc1nc(-c2ccc(OCc3ccccc3)cc2)oc1NCCCn1ccnc1,-2.1,5.8,-0.1,?,18,.,30%,38
CCCC(C)NC(=O)CN1C(=O)c2cccc3cccc1c23 (stereo not drawn),0.4,-0.4,-0.3,-5,5,-0.7,.,-12
CCOc1cccc(OCCOCCN2CCCC2)c1,5.2,3.3,0.1,6,-13,.,7%,1
CCOC(=O)c1c(NC(=O)c2ccoc2C)sc(C)c1C,0.6,3.4,0.1,-2,8,.,-1%,5
CC(C)c1ccccc1NC(=O)CNCCOc1ccccc1F,0.1,2.0,0.9,-7,-6,-1.3,-2%,-1
COC(=O)C1CCN(C(=O)CSc2nnc(-c3ccncc3)o2)CC1,-2.5,-2.4,-0.1,-4,1,.,-1%,-16
Cc1c(NC(=O)OCCSc2nc(N(C)C)nc(N(C)C)n2)sc(=S)n1C,-3.8,4.0,0.6,-3,-3,.,24%,7
CCN(Cc1ccccc1)C1CCN(Cc2ccccc2)CC1,-0.3,3.0,0.0,-6,-4,.,.,14
COc1cc(OC)nc(NC(=S)NC(=O)c2ccccc2)n1,6.4,6.0,-1.7,32,4,5.4,-5%,-6
Clc1ccc(CSc2nc3ccncc3[nH]2)cc1,1.2,0.2,-5.3,1,16,-8.9,3%,35
Cc1ccc(S(=O)(=O)Nc2ccc(C(=O)NC3CC3)cc2)cc1,-0.2,2.7,0.3,-9,-4,2.0,3%,-5
NC(=O)c1ccccc1NC(=S)NC(=O)c1ccc(Br)o1,-3.0,0.7,-0.1,-3,4,.,1%,1
Cc1ccc(C(=O)N/N=C\c2ccc(-c3ccc(Cl)cc3)o2)cn1,-1.5,1.1,0.0,1,4,.,23%,-2
C=CCNC(=O)c1cnn(-c2ccccc2)c1-c1ccccc1,-0.3,0.0,-0.1,-1,-4,-1.6,1%,1
NCCCC[C@H]1CNC(=S)N1CCCCC1CCCCC1,0.9,-0.1,0.7,3,32,15,-5%,-5
COCCOc1cc2ncnc(N3CCC(C(=O)O)CC3)c2cc1OCCOC,-0.8,-1.3,0.2,2,.,-0.1,-7%,-1
CC(Oc1ccc(Cl)cc1)C(=O)N/N=C/c1ccsc1 (stereo not drawn),-1.5,0.5,0.4,-18,0,.,2%,-20
CCOC(=O)[C@H]1[C@H]2COc3ccc(Cl)cc3[C@@H]2N2C(=O)c3cc(Br)ccc3NC(=O)[C@@]12C,.,17*,0.0,.,0,-0.6,.,.
CCCCOc1ccc(C2NC(=O)NC(C)=C2C(C)=O)cc1OCC (stereo not drawn),6.0,-1.9,0.4,16,-2,-1.2,3%,17
O=C(O)c1ccc(-c2ccc(/C=C3\NC(=O)N(Cc4ccc(Cl)cc4)C3=O)o2)cc1Cl,58*,.,.,4,.,-7.2,?,12
NC(=O)CC(NC(=O)c1cccc(Br)c1)c1ccc(NC2CCCCCCCCCCC2)c([N+](=O)[O-])c1 (stereo not drawn),0.2,0.0,0.3,-2,-2,0.1,.,22
Cc1cccnc1NC(=O)CCCc1c[nH]c2ccccc12,5.4,-7.2,0.2,6,-2,-0.9,9%,-4
CC(=O)Oc1ccc(/C=N/NC(=O)c2ccc(N(C)S(=O)(=O)c3ccccc3)cc2)cc1,6.2,-0.9,0.6,-5,.,3.6,.,12
O=C(NCc1ccc2c(c1)OCO2)c1ccc2c(c1)S(=O)(=O)c1ccccc1C2=O,-0.3,-3.5,-0.3,-37,1,-1.4,.,-8
CCOC(=O)N1CCN(C(=O)c2ccc(Cn3c(=S)[nH]c4ccc(Br)cc4c3=O)cc2)CC1,4.0,-2.8,0.6,13,54,1.5,.,28
Cc1cccc(-n2cc(CNCCN3CCOC3=O)c(-c3cccc(F)c3)n2)c1,6.2,-0.9,-0.4,20,-7,3.6,29%,-6
CCS(=O)(=O)n1nc(-c2ccccc2)cc1N,5.5,-2.2,0.4,-2,.,0.5,2%,2
Cc1ccc(C)c(CN2C(=O)C3(OCCCO3)c3ccccc32)c1,5.1,-6.3,0.4,46,1,.,-4%,17
O=C(OCc1nnn(Cc2ccccc2)c1-c1c(COC(=O)c2ccccc2)nnn1Cc1ccccc1)c1ccccc1,.,-0.8,0.3,.,1,.,-5%,.
COc1cccc(-c2nc(N3CCN(c4ccccc4)CC3)c3ccccc3n2)c1O,-0.6,-0.4,-0.5,0,5,.,-2%,22
Cc1cc(=O)n2c3ccccc3n(CC(O)CN3CCC(C)CC3)c2c1C#N (stereo not drawn),0.3,.,.,-7,.,-1.0,.,15
Cc1cc(C)c(NS(=O)(=O)c2c(C)noc2C)c(C)c1,0.9,1.1,-0.4,-8,0,5.2,.,-13
CC(=O)NC1C(OCc2cccc(Br)c2)OC(COC(C)=O)C(OC(C)=O)C1OC(C)=O (stereo not drawn),-1.2,1.4,-0.3,?,1,-3.3,4%,-5
COc1ccc(S(=O)(=O)N2CCOC2CNC(=O)C(=O)NCCN2CCOCC2)cc1OC (stereo not drawn),2.7,3.5,0.5,-1,-2,-0.6,.,2
COc1ccc(OC)c(NC(=O)CCN2C(=O)c3cccc([N+](=O)[O-])c3C2=O)c1,?,1.5,-0.5,8,.,-5.4,.,-16
N[C@@H](C(=O)N[C@@H]1C(=O)N2C(C(=O)O)=C(Cl)CS[C@H]12)c1ccccc1,?,1.3,-0.6,.,-1,-18,?,-10
CC(C)CCOc1ccc(C2=NNC(=O)CC2)cc1,3.6,-5.8,-1.1,17,-11,0.2,-2%,-6
O=C(/C=C/c1ccco1)NCC1OCCc2ccccc21 (stereo not drawn),3.4,-5.9,1.0,-2,107*,0.9,-2%,-2
CC12CC3(C)CC(C)(C1)CC(NC(=O)N1CCCC1)(C2)C3,-1.6,-0.3,0.6,5,-6,.,?,8
O=C(CSc1cc(Cl)ccc1Cl)Nc1ccc(N2CCOCC2)cc1,.,4.4,1.2,.,18,4.8,0%,.
COc1ccc(NC(=O)CN(C)CC(=O)Nc2ccc(C)c(S(=O)(=O)N3CCCCC3)c2)cc1,.,8.9,0.0,.,1,1.2,.,.
O=[N+]([O-])c1ccc(C2CC(c3ccccc3)=Nc3ccccc3S2)cc1 (stereo not drawn),-1.5,-4.0,-1.8,-1,1,1.2,5%,7

Next section:
Molecule,RanGTP-Impb inh,LANA-H2B inh,Bfl-1 A1 inh,Calb FLC,Beta apoptosis,AF4-AF9 inh,Vif TR-FRET,T cruzi repl
O=C(O)c1ccc(O)c(N2C(=O)Nc3ccccc3N2O)c1,-4.8,0.7,0.8,-9,2,.,30%,-13
Cc1ccc(CNC(=O)c2ccc(Cl)c(S(N)(=O)=O)c2)n1C,-0.7,7.5,-0.2,7,-3,-0.8,0%,3
CCOC(=O)NC(=O)CSc1ccccn1,2.0,-3.1,-0.2,8,0,5.5,-1%,-13
CCCCN(C(=O)c1ccc(S(=O)(=O)N(C)C)cc1)c1nc2ccccc2s1,-0.3,0.2,0.2,-2,3,.,.,-13
O=C(NNc1ccccc1[N+](=O)[O-])Nc1ccccc1,-0.8,-14,0.7,-22,-8,4.0,8%,-1
O=C(/C=C/c1ccco1)OCc1nnc(-c2ccc(Cl)cc2)o1,1.1,-2.8,0.1,1,-6,-1.6,.,-9
O=C(NCc1ccc(F)c(F)c1)C1CCC(=O)N(CC2CCCCC2)C1 (stereo not drawn),0.6,0.2,-0.1,5,.,1.5,-2%,-11
O=C(CSCc1ccc(F)cc1)N1CCN(c2ccc(F)cc2)CC1,0.6,2.5,-0.8,19,2,.,7%,3
CC(C)NC(=O)Nc1ccc2c(c1)C(=O)N([C@H](C)CO)C[C@H](C)[C@@H](CN(C)C(=O)Nc1ccccc1)O2,.,-1.6,0.1,.,-11,-0.8,.,.
Cc1cc(NC(=O)CSc2nc(C(C)C)nc3sc4c(c23)CCCC4)no1,-2.5,0.0,-0.1,-3,10,.,-47%,5
O=C(NCC(=O)c1ccccc1)OCc1ccc([N+](=O)[O-])cc1,-2.7,-2.0,-0.1,3,0,-0.1,.,-6
Nc1ncnc2c1ncn2C1OC(CO)C(O)C1N (stereo not drawn),2.1,-3.8,-0.9,-16,.,-0.6,?,-7
CCc1nc2ccccc2n1Cc1ccc(OC)c(OC)c1,?,-2.9,0.7,13,5,-0.2,-4%,-18
CC1CCN(CC(=O)Nc2ccc(Cl)cc2[N+](=O)[O-])CC1,-2.6,1.5,0.3,1,-6,6.3,2%,0
CCOc1nc(NCCc2ccc(OC)c(OC)c2)nc(NC(C)(C)CO)n1,-0.6,-3.5,.,-3,-1,.,-1%,2
Cc1cc(NC(=O)CSc2nc3c(c(=O)n2C)SCC3)no1,-0.7,-2.7,-0.3,-2,-11,-1.5,3%,-7
O=C(CSc1nnc(C2COc3ccccc3O2)o1)Nc1nccs1 (stereo not drawn),-2.3,-2.6,0.8,-1,0,.,18%,-10
COc1ccc(C)cc1NC(=O)CSc1nnc(-c2ccccn2)n1Cc1ccco1,2.5,-4.8,-1.1,-7,-3,.,5%,-19
COCCN(C(=O)c1cc(OC)c(OC)c(OC)c1)c1c(N)n(Cc2ccccc2)c(=O)[nH]c1=O,7.9,0.7,-0.1,4,-4,-0.3,-11%,7
COc1cccc(NC(=O)c2ocnc2C)c1,?,-2.5,-5.1,?,6,.,28%,-16
O=C(CCc1nc2ccccc2[nH]1)Nc1ccc(F)cc1,1.9,0.5,-0.4,-6,9,.,-7%,-5

Source: PubChem
